Source: PubChem
Choline anaer gr – growth inhibitors of anaerobic choline-fed gram-negatives, minimal medium, absorbance. Gram-negative bacterium anaerobic choline minimal medium; active compounds read low; many inactives read as strong as hits in the columns shown. calls only. hit rate 0.2% among 55,000. AID 1963822, 2024;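 active = growth z-score on choline under -2 at 7 or 20 h with little or no fall on glycerol, limits in tiers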;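 note: stock transfer was 300 nL into about 50 µL; the organism is E. coli; final concentration not given here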
Choline anaer gr early – further read-out of Choline anaer gr, marked with its call; z-score; measured here: choline growth z-score, timepoint 1;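 score of optical density at 7 h as mean of two plates; lower means less growth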
Starred values were filed as active, the others as inactive; i = inactive; & = joins results of further samples. This is a subset. The share of hits here may be higher or lower than overall.

SMILES	Choline anaer gr	Choline anaer gr early
CCCCNCc1cc(=O)n2[nH]c(-c3ccc(C(C)(C)C)cc3)nc2n1	i	-0.83
CCOC(=O)c1nc(NC(C)C(=O)N2CCCCC2)c2c(C)noc2n1 (stereo unspecified)	i	0.33
O=C(c1ccc2c(c1)OCO2)N1CCCCC1	i	0.01
O=S(=O)(c1ccc(-c2nnc(C3CCCC3)o2)s1)N1CCOCC1	i	-0.68
Cc1cc(=O)n2nc(-c3ccc(Cl)cc3)nc2n1CC(=O)N1CCN(c2ccc(F)cc2)CC1	i	0.48
COc1ccc(C)cc1Nc1n[nH]nc1C(=O)NCc1ccc(F)cc1	i	2.1
O=C1CCS(=O)(=O)N1c1ccc(S(=O)(=O)Nc2ccc(F)c(Cl)c2)cc1	i	0.1
Cc1nn(-c2ccc3nnc(C)n3n2)c2c1C(c1cccc(O)c1)CC(=O)N2 (stereo unspecified)	i	-1.3
O=S(=O)(NCCc1csc(-c2ccc(F)cc2)n1)c1ccc(F)cc1	i	0
COCCNS(=O)(=O)c1c[nH]c(-c2nnc(C)o2)c1	i	-6.9
O=C(Cn1nc2ccc(S(=O)(=O)C3CCCCC3)nn2c1=O)Nc1ccc(F)cc1F	i	-1.4
COC(=O)C1=C(c2ccccc2)c2cc(Cl)ccc2S(=O)(=O)N1CC(=O)Nc1cccc(Cl)c1	i	0.46
Cc1noc(C)c1C1CCCN1Cc1cn(C(C)C)c2ccccc12 (stereo unspecified)	i	-0.72
Cc1nc2ccccc2c(=O)n1-c1ccc(NC(=O)CC(C)(C)C)cc1	i	0.27
Cc1ccc(C(=O)NCCOc2ccc(-c3ccccc3)nn2)cc1	i	-0.17
NC(N)=NC(N)=Nc1ccccc1	i	0.52&0.13
CN(C)c1ccc(CNC(=O)c2ccccc2NC(=O)c2nsc3ccccc23)cc1	i	0.43
CC(C)c1cc(C2CCCN2Cc2cccc(Br)c2)no1 (stereo unspecified)	i	2
Cc1nn(-c2ccc(-c3ccccc3)nn2)c(C)c1S(=O)(=O)N1CCN(c2ccccn2)CC1	i	1.2
Cc1nn(-c2ccc(F)cc2)c2c1c(=O)c(C(=O)NCc1ccccn1)cn2C	i	-0.74
Cc1ccc(Cl)cc1N1CCN(C(=O)c2ccc3noc(-c4ccc(F)cc4)c3c2)CC1	i	0.2
CCN1CCN(C2(CNC(=O)c3cccs3)CCCCC2)CC1	i	-0.4
CCc1cc2c(NCCN(C)C3CCCCC3)ncnc2s1	i	-5.1
CCn1c(=O)n(CC)c2cc(N3CCCC3)c(NC(=O)Nc3ccc(OC)cc3OC)cc21	i	-0.38
Cn1c(=O)c2c(-c3ccccc3)n3c(c2n(C)c1=O)C(c1ccc(O)cc1O)Nc1ccccc1-3 (stereo unspecified)	i	0.15

Continued (4 carried over from the part before).
SMILES	Choline anaer gr	Choline anaer gr early
CCN1CCN(C2(CNC(=O)c3cccs3)CCCCC2)CC1	i	-0.4
CCc1cc2c(NCCN(C)C3CCCCC3)ncnc2s1	i	-5.1
CCn1c(=O)n(CC)c2cc(N3CCCC3)c(NC(=O)Nc3ccc(OC)cc3OC)cc21	i	-0.38
Cn1c(=O)c2c(-c3ccccc3)n3c(c2n(C)c1=O)C(c1ccc(O)cc1O)Nc1ccccc1-3 (stereo unspecified)	i	0.15
O=C(NCC1CCCO1)c1cccnc1Oc1ccc(NS(=O)(=O)c2ccc(Cl)cc2)cc1 (stereo unspecified)	i	-1
CCc1ccccc1NC(=O)N1CCc2c([nH]c3ccccc23)C1c1cccnc1 (stereo unspecified)	i	-1.3
C=CCn1c(=O)c(C(=O)Nc2ccccn2)c(O)c2ccccc21	i	0.79
Cn1cc(C(=O)NC2CCCC2)c2[nH]c(=O)n(-c3ccccc3)c(=O)c21	i	-1.2
CCOC(=O)c1c(NC(=O)c2ccc(S(=O)(=O)N3CCCC3)cc2)sc2c1CCN(CC)C2	i	-0.25
O=C(c1c(-c2ccccc2)nnc2ccccc12)N1CCCC1	i	-0.55
COc1ccc(S(=O)(=O)N2CCc3cc4ccc(C)cc4nc32)cc1Cl	i	-1.1
Cc1cc(C(=O)N2CCCC2c2ccc(F)cc2)no1 (stereo unspecified)	i	-1.1
Cc1nc(CCNC(=O)C2CCN(S(=O)(=O)c3ccc(C4CCCCC4)cc3)CC2)cs1	i	-2.1
CC1Cc2ccccc2N1C(=O)Cc1csc(NC(=O)c2ccccc2)n1 (stereo unspecified)	i	0.08
CCOc1ccc(-n2nnc3c(N4CCN(C(=O)C5CCCC5)CC4)ncnc32)cc1	i	0.7
CCCCOc1ccc(CN2CCCC2c2cc(CCC)on2)cc1 (stereo unspecified)	i	0.88
CCc1c(C)sc2c1CCN(C(=O)Nc1cccc(OC)c1)C2c1ccccc1 (stereo unspecified)	i	-0.91
CN(C)c1ccc(Nc2c(C(=O)N3CCCCC3)cnc3ccc(F)cc23)cc1	i	2.8
Cc1nnc2ccc(-n3ncc4c3NC(=O)CC4c3ccc(O)cc3)nn12 (stereo unspecified)	i	0.12
Cc1ccc(S(=O)(=O)N2C(=O)CCC2C(=O)NCc2nc(-c3ccccc3)no2)cc1 (stereo unspecified)	i	0.43
O=C1CCCc2c1cc(C(=O)NCc1ccc(Cl)cc1)c(=O)n2-c1ccc(F)cc1	i	0.17
Cc1ccc(C(=O)Nc2ccc(N3CCN(c4ccccc4Cl)CC3)c(C(=O)O)c2)cc1	i	0.04
CCCCN1CC(=O)N(c2ccc(C)cc2)[C@@H]2CS(=O)(=O)C[C@@H]21	i	-2.7
Cc1cc(Sc2ccccc2NC(=O)c2cccc(F)c2)n2ncnc2n1	i	-1.5
Clc1ccc(-c2noc(-c3ccc(N4CCCC4)nn3)n2)cc1	i	-0.15
Cc1ccc(Cl)cc1NS(=O)(=O)c1cc2c(cc1C)NC(=O)CO2	i	0
CCCCCC#CCC#CCC#CCC#CCCCC(=O)O	i	0.7
Cc1oc2ncnc(N3CCCC(C(=O)NCc4ccccc4)C3)c2c1C (stereo unspecified)	i	-0.74
Cc1ccccc1NC(=O)CSc1ccc(-c2sc(-c3ccccc3)nc2C)nn1	i	0.28
(list continues)
SMILES	Choline anaer gr	Choline anaer gr early
O=C(CSc1nnc(-c2cc3ccccc3o2)n1-c1ccccc1)Nc1ccc2[nH]c(=O)[nH]c2c1	i	0.26
CN(C)[C@@H]1CCc2[nH]c3ccc(NC(=O)c4ccc(F)cc4)cc3c2C1	i	-0.17
CCC(Sc1nnc(-c2cc(C)ccc2NC(C)=O)c(=O)[nH]1)C(=O)Nc1cccc(Cl)c1 (stereo unspecified)	i	-0.78
Cc1cccc(NC(=O)Cn2c(=O)n(Cc3ccc4c(c3)OCO4)c(=O)c3oc4ccccc4c32)c1	i	-0.87
O=C(Nc1cccc(Cl)c1)c1ccc(CNc2c(N3CCCCC3)c(=O)c2=O)cc1	i	-0.63
CCN(CCC(=O)N1CCNCC1)C(=O)c1ccc(Cl)cc1	i	-0.48
COCC1=C(C(=O)OC(C)OC(=O)OC(C)C)N2C(=O)C(NC(=O)C(=NOC)c3csc(N)n3)C2SC1 (stereo unspecified)	i	-0.58
O=S(=O)(c1ccc2c(c1)CCCC2)N1CCCC1c1ccc(Cl)cc1 (stereo unspecified)	i	2.1
CN1CCN(C(=O)c2ccc(Cl)cc2)c2ccccc21	i	0
Cc1cc(C)c2c(-n3cccc3)c(C(=O)N3CCC(C)CC3)sc2n1	i	-0.37
CN1C(=O)C2CCCCN2c2ccc(C(=O)N3CCc4ccccc4C3)cc21 (stereo unspecified)	i	-0.46
CC(C)Oc1ccc(NS(=O)(=O)c2ccc(N3C(=O)C(C)CS3(=O)=O)cc2)cc1 (stereo unspecified)	i	-0.46
Cc1ccc(C)c(S(=O)(=O)N2CCC3(CC2)NCCN=C3NCc2ccccc2C)c1	i	-1.4
Cc1cc(SCC(=O)Nc2ccc(Cl)cc2)nc2ccc(S(=O)(=O)N3CCCC3)cc12	i	2
COc1ccc(S(=O)(=O)NCc2ccccc2)cc1-c1noc(C(C)(C)C)n1	i	-0.65
O=C(O)c1nc2ccccc2[nH]c1=O	i	0.62
COc1ccc(NC(=O)c2nnc(C3CCN(S(=O)(=O)c4ccc(OC)cc4)CC3)s2)cc1	i	-1
CN1C(=O)C2(CCN(C(=O)C(C)(C)C)C2)c2ccccc21 (stereo unspecified)	i	0.31
Cc1nc(-c2ccc(C)c(S(=O)(=O)N3CCC(C(=O)N4CCN(c5cccc(Cl)c5)CC4)CC3)c2)no1	i	0.93
COc1ccc(-c2nn3c(-c4ccccc4F)nnc3s2)cc1	i	-1
COCCNC(=O)Cc1c(Sc2ccc(F)cc2)[nH]c2ccccc12	i	0.14
Cc1cccc(NC(=O)Nc2ccccc2SCc2cc(=O)n3c(ncn3CC(C)C)n2)c1	i	3
CCOc1ccc(CCNC(=O)Cn2c(=O)c(=O)n(Cc3ccc(Cl)cc3)c3ccccc32)cc1	i	1.1
Cc1ccccc1NC(=O)Nc1c(C)nc2nc[nH]n2c1=O	i	-0.23
Cc1cc(Cl)ccc1NC(=O)CNS(=O)(=O)c1cc(-c2noc(C3CCC3)n2)cs1	i	2.1

3 compounds already listed, arranged by heavy-atom count, descending.
SMILES	Choline anaer gr	Choline anaer gr early
COCC1=C(C(=O)OC(C)OC(=O)OC(C)C)N2C(=O)C(NC(=O)C(=NOC)c3csc(N)n3)C2SC1 (stereo unspecified)	i	-0.58
CN(C)[C@@H]1CCc2[nH]c3ccc(NC(=O)c4ccc(F)cc4)cc3c2C1	i	-0.17
CN1C(=O)C2(CCN(C(=O)C(C)(C)C)C2)c2ccccc21 (stereo unspecified)	i	0.31

The list goes on.
SMILES	Choline anaer gr	Choline anaer gr early
CCOC(=O)c1c(C)[nH]c(C(=O)N2CCC(C(C)C(=O)N3CCN(c4ccccn4)CC3)CC2)c1C (stereo unspecified)	i	-0.21
O=c1ccn(-c2ccc(Cl)cc2)nc1-c1nc(-c2cccc(Br)c2)no1	i	-0.73
COc1cccc(NC(=O)Nc2nc3c(s2)CN(S(=O)(=O)c2ccccc2)CC3)c1	i	1.1
Nc1nc(-c2ccccc2)nn1C(=O)c1ccccc1	i	-0.04
CC(C)C(=O)Nc1ccc2c(c1)nc(CCNC(=O)C1CC1)n2C	i	-0.49
CN1CCCC(n2nc(Cc3ccc(Cl)cc3)c3ccccc3c2=O)CC1 (stereo unspecified)	i	-0.21&0.64
COC(=O)c1c(C)[nH]c(C(=O)N2CCC(CC(=O)NCCc3c[nH]c4ccc(C)cc34)CC2)c1C	i	-0.47
Cc1cc(OC(C)C(=O)Oc2cccc(-n3cnnn3)c2)cc(C)c1Cl (stereo unspecified)	i	0.83
CC(C)NC(=O)C1CCN(c2cc(-c3ccc(F)cc3)ncn2)CC1	i	-0.19
CN(C)c1ccc(C(CNS(C)(=O)=O)N2CCN(c3ccc(F)cc3)CC2)cc1 (stereo unspecified)	i	0.22
CS(=O)(=O)N1CCN(c2cc(-c3cccc(F)c3)ncn2)CC1	i	-0.03
Cc1cc(C)c(S(=O)(=O)N(CCCN2CCCC2=O)CC(=O)N2CCNCC2)c(C)c1	i	-1.4
O=C(Nc1cccc2c1CCCC2)c1cc(-c2ccccn2)n[nH]1	i	2.5
Cc1ccc(S(=O)(=O)Cc2noc(-c3ccc(Cl)cc3)n2)cc1	i	-1.4
C=C(C)CN1CCN(c2cc(C)nc3c(-c4ccc(F)cc4)c(C)nn23)CC1	i	-1.1
O=S(=O)(NC1CCCCCC1)c1ccc2c(c1)-c1oncc1CO2	i	-0.98
CN(C)c1cccc(C(=O)NC(=NCc2ccncc2)Nc2ccc(F)cc2)c1	i	-0.39
O=S(=O)(NCC1CCN(Cc2cccc(Cl)c2)CC1)c1ccc2c(c1)-c1oncc1CO2	i	-0.88
CCS(=O)(=O)NC1CCN(C(=O)C2CCCC2)C1 (stereo unspecified)	i	0.63
Cn1cc(S(=O)(=O)N2CCCC2)cc1C(=O)N1CCC(Cc2ccccc2)CC1	i	-0.95
COc1ccc(S(=O)(=O)NCCc2sc3nc(-c4ccc(C)cc4)nn3c2C)cc1	i	-0.73
N#CC1=CN(c2cc(Cl)cc(Cl)c2)c2cc(F)ccc2S1(=O)=O	i	0.87
Fc1ccc(N2CCn3c(SC/C=C/c4ccccc4)nnc32)cc1	i	-0.13
Cc1ccc(NC(=O)Nc2ccc(SCc3cc(=O)n4c(ncn4C(C)C)n3)cc2)cc1	i	-0.1
Cc1ccc(NC(=O)Cn2nc(N(C)C)c3ccccc3c2=O)c(C)c1	i	-0.31
Next section.
SMILES	Choline anaer gr	Choline anaer gr early
Cc1cccc(Nc2nccc(=O)[nH]2)c1	i	-1.4
O=C(NC1CC1)C1CCCN(c2nc3ncn(CC(=O)N4CCc5ccccc5C4)c(=O)c3s2)C1 (stereo unspecified)	i	-0.26
Cc1ccc(NC(=O)Nc2ccc(SCc3nnc(-c4ccccc4)o3)cc2)cc1F	i	0.88
Cc1cc(N2C(=O)CCS2(=O)=O)ccc1S(=O)(=O)N(C)C1CCS(=O)(=O)C1 (stereo unspecified)	i	-0.45
CCN(CC)S(=O)(=O)c1ccc2c(c1)nc(C(F)(F)F)n2CCC(=O)Nc1cc(C)cc(C)c1	i	-0.89
COc1ccc(OC)c(S(=O)(=O)Nc2cccc(-c3ccc4ccccc4n3)c2)c1	i	1.1
COc1ccc(N2C(=O)CC(c3ccc(OC)c(OC)c3)CC2=O)cc1Cl	i	0.77
CCN1CCc2nc3sc(C(=O)c4ccccc4)c(N)c3cc2C1	i	1.4

Four entries from above, reformatted.
structure,Choline anaer gr,Choline anaer gr early
C=CCn1c(=O)c(C(=O)Nc2ccccn2)c(O)c2ccccc21,i,0.79
Cn1cc(C(=O)NC2CCCC2)c2[nH]c(=O)n(-c3ccccc3)c(=O)c21,i,-1.2
CCOC(=O)c1c(NC(=O)c2ccc(S(=O)(=O)N3CCCC3)cc2)sc2c1CCN(CC)C2,i,-0.25
O=C(c1c(-c2ccccc2)nnc2ccccc12)N1CCCC1,i,-0.55
